Source: PubChem (Broad Institute)
Ecoli rRNA inh: inhibitors of bacterial rRNA selective over humanized ribosomes; E. coli WT GFP vs humanized-ribosome RFP mutants, fluorescence, 24 h; stronger effect = lower value; DMSO median 0, no signal -100; GFP signal change (wild-type ribosome), % (test concentration not listed); 350,000 tested, 1.6% active;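 active = significant combined selectivity score with lowered wild-type GFP, culture density cut under 30%, mutant RFP and density less affected; inactive = any of these conditions unmet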; note: one replicate is shown; some compounds called inactive have numbers as strong as hits
Ecoli rRNA inh OD600: recorded beside Ecoli rRNA inh, whose call it bears; OD600 change, %; measured here: OD600 growth;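 optical density of the mix in the first replicate; 0 = DMSO median and -100 = no signal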
Ecoli rRNA inh RFP: further read-out of Ecoli rRNA inh, marked with its call; RFP signal change, %; measured here: RFP humanized mutant strains;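 first replicate; 0 = DMSO median and -100 = no signal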
* hit, by the source's call; & = joins results of further samples. Some of the compounds tested. The share of hits here may be higher or lower than overall.

Ecoli rRNA inh OD600,Ecoli rRNA inh,Ecoli rRNA inh RFP,smiles
6,3,-4.0,CN(C)CC(=O)N1CCCCN2[C@H](C1)[C@@H](c1ccc(-c3cccnc3)cc1)[C@@H]2CO
-8,-3,1.0,COc1ccccc1CNC(=O)C[C@@H]1CC[C@@H]2[C@@H](COc3ccc(NS(=O)(=O)c4ccc(C)cc4)cc3C(=O)N2C)O1
9,3,-2.4,O=C(NCc1ccc(F)cc1F)[C@@H]1CCCN1C(=O)[C@@H]1CCCN1
4,2,0.7,COc1ccc(S(=O)(=O)Nc2ccc3c(c2)C(=O)N([C@H](C)CO)C[C@@H](C)[C@@H](CN(C)S(=O)(=O)c2cn(C)cn2)O3)cc1
3,-4,0.0,C[C@H](CO)N1C[C@H](C)[C@H](CN(C)S(=O)(=O)c2cn(C)cn2)OCCCC[C@H](C)Oc2ccc(NC(=O)Nc3ccc(C(F)(F)F)cc3)cc2C1=O
-7,-5,-0.1,C[C@@H]1CN(C)C(=O)c2cc(N)ccc2O[C@@H]1CN(C)C(=O)OC(C)(C)C
-7,-1,0.1,COCC#Cc1ccc2c(c1)O[C@H](CN(C)C(=O)c1ccccc1)[C@H](C)CN([C@H](C)CO)S2(=O)=O
-4,-5,-11,COc1cc2nn(-c3ccccc3N)nc2cc1OC
-36,-27,20,C[C@H](CO)N1C[C@H](C)[C@@H](CN(C)Cc2ccc(F)cc2)OCc2ccccc2-c2c(n(C)c3ccccc23)C1=O
3,4,0.6,C[C@@H]1CCCCO[C@@H](CN(C)Cc2ccccc2)[C@H](C)CN([C@@H](C)CO)C(=O)c2cc(N(C)C)ccc2O1
-2,4,-1.9,CN(C)CC(=O)N1[C@@H](C#N)[C@@H](c2ccccc2-c2cccc(C(=O)N(C)C)c2)[C@@H]1CO
-5,-1,2.5,C[C@H]1CN([C@@H](C)CO)C(=O)c2c(c3ccccc3n2C)-c2ccccc2CO[C@@H]1CN(C)C(=O)Nc1ccnc(N2CCOCC2)c1
0,-7,-2.6,O=C(C[C@H]1CC[C@H]2[C@@H](COC[C@@H](O)CN2S(=O)(=O)c2cccc(Cl)c2)O1)Nc1ccccc1
5,3,2.3,C[C@@H]1CN([C@@H](C)CO)C(=O)c2cc(NC(=O)Cc3cn(C)c4ccccc34)ccc2O[C@@H]1CN(C)C(=O)Nc1ccc2c(c1)OCO2
-6,4,-0.6,COc1ccc2c3c([nH]c2c1)[C@H](CO)N(C(=O)c1ccc(F)cc1)CC31CN(C)C1
3,-3,-0.7,Cc1ccc(S(=O)(=O)N(C)C[C@H]2Oc3c(cccc3N(C)C)C(=O)N([C@@H](C)CO)C[C@@H]2C)cc1
6,-2,-1.3,Cc1ccc(-c2cnc3c(c2)C(=O)N([C@H](C)CO)C[C@@H](C)[C@@H](CN(C)C(=O)Cc2ccncc2)O3)cc1
5,4,-1.1,CC(C)NC(=O)N1[C@@H](CO)[C@@H](c2ccccc2)C12CN(C(=O)CN(C)C)C2
-67,-36,6.7,O=C(C[C@H]1CC[C@@H]2[C@H](COC[C@H](O)CN2CCc2ccccc2)O1)NCc1ccc(Oc2ccccc2)cc1
11,-1,-1.2,C[C@@H]1CN([C@H](C)CO)C(=O)Cc2cc(NS(=O)(=O)c3ccccc3)ccc2O[C@H]1CN(C)S(=O)(=O)c1ccccc1
-6,-8,1.1,C[C@@H]1CN([C@H](C)CO)C(=O)c2cccc(NS(=O)(=O)c3ccccc3)c2O[C@H]1CN(C)C(=O)Nc1ccc(C(F)(F)F)cc1
-9,-7,2.2,Cc1ccc(S(=O)(=O)NCC[C@H]2CC[C@@H](NS(=O)(=O)c3ccccc3Cl)[C@@H](CO)O2)cc1
-6,0,-0.1,C[C@@H]1CCCCO[C@H](CN(C)Cc2ccc(C(=O)Nc3ccccc3N)cc2)[C@@H](C)CN([C@@H](C)CO)C(=O)c2cc(NS(=O)(=O)c3ccc(Cl)cc3)ccc2O1
-1,2,1.6,CCCNC(=O)C[C@@H]1CC[C@H]2[C@@H](COc3ccc(NC(=O)Cc4ccccc4)cc3C(=O)N2C)O1
13,-6,-5.0,CCCC#Cc1ccc([C@H]2[C@@H](C#N)N(S(=O)(=O)c3cccc(F)c3)[C@H]2CO)cc1
-20,-5,0.2,CCOc1ccccc1-c1cnc(NC)cn1
3,1,-1.6,O=C(C[C@@H]1CC[C@H](NC(=O)C2CCC2)[C@@H](CO)O1)NCc1ccccc1Cl
2,-1,-2.2,C[C@H]1CN([C@@H](C)CO)C(=O)c2cc(NC(=O)C3CC3)ccc2O[C@@H]1CN(C)Cc1ccccc1
4,1,-0.9,COc1ccc(S(=O)(=O)N(C)C[C@H]2Oc3ccc(NC(=O)Nc4cccc5ccccc45)cc3C(=O)N([C@H](C)CO)C[C@H]2C)cc1
-18,1,16,CCC(=O)N1CC(=O)N2[C@H](C1)[C@H](c1ccc(C#Cc3cccc(F)c3)cc1)[C@@H]2CO

Filtered by structure, the entries above with a cyano group
Ecoli rRNA inh OD600,Ecoli rRNA inh,Ecoli rRNA inh RFP,smiles
-2,4,-1.9,CN(C)CC(=O)N1[C@@H](C#N)[C@@H](c2ccccc2-c2cccc(C(=O)N(C)C)c2)[C@@H]1CO
13,-6,-5.0,CCCC#Cc1ccc([C@H]2[C@@H](C#N)N(S(=O)(=O)c3cccc(F)c3)[C@H]2CO)cc1

(cont.)
Ecoli rRNA inh OD600,Ecoli rRNA inh,Ecoli rRNA inh RFP,smiles
6,4,-0.1,Cc1ccc(S(=O)(=O)Nc2ccc3c(c2)C(=O)N([C@@H](C)CO)C[C@@H](C)[C@@H](CN(C)C(=O)CCCN(C)C)OCCCC[C@H](C)O3)cc1
2,4,-0.8,CNC(=O)C[C@H]1CC[C@H]2[C@@H](COC[C@@H](O)CN2Cc2ccc(C(F)(F)F)cc2)O1
-7,-1,-1.7,COc1ccccc1-c1ccc([C@@H]2[C@H](C#N)N(C(=O)CN(C)C)[C@H]2CO)cc1
-2,-2,-1.4,O=C(C[C@@H]1C[C@H]2c3cc(NC(=O)C4CCC4)ccc3O[C@H]2[C@@H](CO)O1)NC1CCCCC1
-8,-12,-3.0,Cc1ccc(NC(=O)c2ccc3c(c2)CCN3S(C)(=O)=O)cc1
8,0,-0.9,CCC(=O)Nc1ccc2c(c1)C(=O)N(C)C[C@@H](OC)[C@@H](C)CN(C(=O)c1cnccn1)[C@@H](C)CO2
7,-1,3.2,COc1ccc(S(=O)(=O)Nc2ccc3c(c2)C(=O)N([C@@H](C)CO)C[C@@H](C)[C@H](CN(C)Cc2ccccc2)OCCCC[C@@H](C)O3)cc1
1,0,1.6,COc1ccc(NC(=O)Nc2ccc3c(c2)C(=O)N([C@@H](C)CO)C[C@@H](C)[C@@H](CN(C)CC2CC2)OCCCC[C@@H](C)O3)cc1
2,1,-1.3,O=C(C[C@@H]1CC[C@@H](NC(=O)c2ccc3c(c2)OCO3)[C@H](CO)O1)NC1Cc2ccccc2C1
0,-1,1.2,COc1ccc(NC(=O)N(C)C[C@@H]2Oc3c(NC(=O)Nc4ccc5c(c4)OCO5)cccc3C(=O)N([C@@H](C)CO)C[C@H]2C)cc1
-19,-5,6.7,Cc1ccccc1S(=O)(=O)N1CC[C@@H]2[C@H]1c1cc(-c3ccccc3)ccc1N[C@@H]2CO
-9,1,2.4,C[C@@H]1CCCCO[C@@H](CN(C)C(=O)CCC(F)(F)F)[C@H](C)CN([C@H](C)CO)C(=O)c2cc(NS(=O)(=O)c3ccc(Cl)cc3)ccc2O1
-4,-1,-0.5,O=C(NCc1ccccc1)[C@H]1N[C@H]2c3cccc(=O)n3C[C@H]2[C@@H]1CO
-67,-41,-0.8,O=C(c1ccccc1)N1CC(=O)N2[C@H](CO)[C@@H](c3ccc(/C=C/c4ccccc4)cc3)[C@H]2C1
-10,-4,0.0,COc1ccc(-c2ccc(CN3C(CC(C)C)C(=O)N(Cc4cn(CCC5OCCO5)nn4)CCS3(=O)=O)cc2)cc1OC (stereo unspecified)
-12,-4,-1.7,COc1cccc(NC(=O)N(C)C[C@@H]2OCc3ccccc3-c3ccccc3C(=O)N([C@@H](C)CO)C[C@@H]2C)c1
10,8,-1.6,Cc1noc(C)c1NC(=O)N(C)C[C@H]1Oc2c(NC(=O)C3CC3)cccc2C(=O)N([C@@H](C)CO)C[C@@H]1C
-1,-6,2.6,COc1ccc(-c2ccc3c(c2)[C@H]2[C@H](CCN2C(=O)c2cccc(F)c2)[C@H](CO)N3)cc1
9,-1,-0.4,CC=Cc1ccc2n(c1=O)C[C@@H]1N[C@H]2[C@H](C(=O)NC2CCCC2)[C@H]1CO (mixture of isomers)
-6,-2,0.0,CO[C@@H]1CN(C)C(=O)c2cc(NC(=O)NC(C)C)ccc2OC[C@H](C)N(CCC(F)(F)F)C[C@H]1C
-8,0,5.5,COc1ccc(CN(C)C[C@@H]2OCCCC[C@H](C)Oc3ccc(NC(=O)Nc4ccc(OC)cc4)cc3C(=O)N([C@@H](C)CO)C[C@@H]2C)cc1
-3,4,5.6,O=C(COC(=O)c1ccccc1)NCC1COc2ccccc2O1 (stereo unspecified)
4,-2,2.2,O=C(C[C@H]1C[C@@H]2c3cc(NC(=O)c4cccnc4)ccc3O[C@@H]2[C@@H](CO)O1)NCCc1ccccc1
-3,-1,-0.8,O=C(O)C[C@@H]1CC[C@H]2[C@@H](COC[C@H](O)CN2S(=O)(=O)c2ccc(Oc3ccccc3)cc2)O1
6,-2,-2.9,Cc1noc(C)c1NC(=O)N(C)C[C@@H]1OCCCC[C@@H](C)Oc2ccc(NC(=O)Nc3cccc4ccccc34)cc2C(=O)N([C@@H](C)CO)C[C@H]1C
2,1,0.3,CCNC(=O)[C@@H]1[C@@H](CO)[C@@H]2Cn3c(ccc(C4=CCCC4)c3=O)[C@@H]2N1C(=O)CC1CC1
4,-1,-0.8,C[C@@H]1CN([C@@H](C)CO)C(=O)c2cccc(NS(=O)(=O)c3cn(C)cn3)c2O[C@H]1CN(C)C(=O)Nc1ccc(F)cc1
5,5,0.1,C[C@H](CO)N1C[C@H](C)[C@H](CN(C)C)Oc2ccc(NC(=O)CCN3CCOCC3)cc2CC1=O
4,1,-1.5,C[C@H](CO)N1C[C@H](C)[C@H](CN(C)Cc2cccc(O)c2)OCc2cnnn2CCCC1=O
3,2,4.7,O=C(C[C@@H]1CC[C@H]2[C@@H](COC[C@@H](O)CN2S(=O)(=O)c2ccccc2Cl)O1)NCc1ccccc1Cl
4,0,0.2,C[C@@H]1CN([C@H](C)CO)C(=O)c2cc(-c3ccncc3)cnc2O[C@H]1CN(C)C
-2,0,1.8,CO[C@H]1CN(C)C(=O)c2ccc(NS(=O)(=O)c3cn(C)cn3)cc2OC[C@H](C)N(CCC(F)(F)F)C[C@H]1C
-20,-2,6.3,COc1ccc(S(=O)(=O)Nc2ccc3c(c2)CC(=O)N([C@H](C)CO)C[C@H](C)[C@H](CN(C)Cc2ccc4c(c2)OCO4)O3)cc1
6,0,-1.0,O[C@H]1C[C@H](c2ccc(Cl)cc2)N(Cc2cccs2)C[C@@H]1n1cc(-c2ccc(F)cc2)nn1
16&4,7&2,13&-0.4,O=C(C[C@H]1C[C@@H]2c3cc(NS(=O)(=O)c4ccccc4)ccc3O[C@@H]2[C@H](CO)O1)N1CCOCC1
-59,-44,31,COc1ccc2c3c([nH]c2c1)[C@@H](CO)N(Cc1ccccc1)CC31CCN(S(=O)(=O)c2ccc(C)cc2)CC1
-78,-60,-19,Cc1noc(C)c1NC(=O)Nc1ccc2c(c1)C(=O)N([C@@H](C)CO)C[C@@H](C)[C@@H](CN(C)C(=O)Nc1ccc(C(F)(F)F)cc1)O2
-44,-12,12,CC1(C(=O)Nc2cnc3ccccc3c2)CCN1Cc1ccc2ccccc2c1 (stereo unspecified)
3,-5,0.7,C/C=C/c1ccc([C@H]2[C@@H](CNC(=O)CC3CC3)N(C(=O)CC)[C@H]2CO)cc1
-8,1,-3.1,O=C(C[C@@H]1C[C@@H]2c3cc(NC(=O)CC4CC4)ccc3O[C@@H]2[C@@H](CO)O1)NCc1ccc2c(c1)OCO2
5,-4,8.1,Cc1ccc(Cc2c(-c3ccccc3)nc3c(C)cc(Br)cn23)cc1
4,-1,-0.1,CC(=O)Nc1ccc(-c2noc(-c3csc([C@@H]4C[C@H](O)[C@@H](CO)O4)n3)n2)cc1
0,-2,1.7,C[C@@H]1CCCCO[C@@H](CN(C)C(=O)Cc2ccccc2)[C@H](C)CN([C@@H](C)CO)C(=O)c2cc(NC(=O)Nc3ccccc3)ccc2O1
7,1,0.7,COCC(=O)Nc1ccc2c(c1)[C@H]1C[C@@H](CC(=O)NCc3ccccc3)O[C@H](CO)[C@H]1O2

Sorted by count of non-hydrogen atoms (highest first): part of the list above.
Ecoli rRNA inh OD600,Ecoli rRNA inh,Ecoli rRNA inh RFP,smiles
0,-2,1.7,C[C@@H]1CCCCO[C@@H](CN(C)C(=O)Cc2ccccc2)[C@H](C)CN([C@@H](C)CO)C(=O)c2cc(NC(=O)Nc3ccccc3)ccc2O1
7,1,0.7,COCC(=O)Nc1ccc2c(c1)[C@H]1C[C@@H](CC(=O)NCc3ccccc3)O[C@H](CO)[C@H]1O2
5,-4,8.1,Cc1ccc(Cc2c(-c3ccccc3)nc3c(C)cc(Br)cn23)cc1

2 of the compounds above, bar-delimited.
SMILES | Ecoli rRNA inh OD600 | Ecoli rRNA inh | Ecoli rRNA inh RFP
Cc1ccc(Cc2c(-c3ccccc3)nc3c(C)cc(Br)cn23)cc1 | 5 | -4 | 8.1
CC(=O)Nc1ccc(-c2noc(-c3csc([C@@H]4C[C@H](O)[C@@H](CO)O4)n3)n2)cc1 | 4 | -1 | -0.1
